# HSD17B inhib – qHTS Assay for Inhibitors of HSD17B4, hydroxysteroid (17-beta) dehydrogenase 4; 3-hydroxyacyl-CoA dehydrogenase type-2 (Homo sapiens), Q99714; recombinant HSD17B10, NADH fluorescence kinetic; many of its hits are not listed in these tables; Potency, µM (top dose mostly 57.1 µM), for the others: top-dose activity change, negative = inhibition, usual class: inhibitors; 7.6% of 75,000 active; active means well fitted inhibition curve with a large enough effect; inconclusive means small, poorly fitted or top-dose-only effect; inactive means no such curve, though single readings can be large or run the other way;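 further: the protocol describes HADH2 (HSD17B10) and not the HSD17B4 of the title; nearly all actives have a fitted effect of over 70% in size; most hits overshoot -100% by far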
#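 Activity followed as NADH fluorescence increase (ex 360, em 450 nm) every 30 seconds for 4 min, using final 90 uM beta-hydroxybutyryl CoA and 1 mM NAD+. Recombinant His-tagged enzyme, 20 nM, pH 9.0 Tris buffer, 15 min compound preincubation.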
# * hit, by the source's call; ? = inconclusive; [ ] = another dose, or the depositor's remark. On the % scale 0 is the no-effect control and ±100 the full control effect; potency means the concentration at half of the fitted maximal effect. Some of the compounds tested; rates above refer to the full screens.
# Sample of the layout, 2 compounds:
SMILES,HSD17B inhib
Cn1c(CSc2ccccc2)c(C#N)c2ccccc21,-12.7%
Cc1ccc2nc(NC(=O)CN(C)S(=O)(=O)c3cccc4nsnc34)sc2c1,-1.4%

# Main list, previewed entries included:
SMILES,HSD17B inhib
Cn1c(CSc2ccccc2)c(C#N)c2ccccc21,-12.7%
Cc1ccc2nc(NC(=O)CN(C)S(=O)(=O)c3cccc4nsnc34)sc2c1,-1.4%
CCC(=O)c1cc2c(C)cc(=O)oc2c(C)c1O,66.3%[activator]
CSc1nc(O)c(C2OC(=O)c3ccccc32)c(=O)[nH]1 (stereo not drawn),3.6%
CCN(CC)S(=O)(=O)c1cc(C(=O)Nc2ccc(Cl)cn2)ccc1C,-7.6%
COc1ccccc1OCC(=O)NCC1CCCCC1,-2.3%
COC(=O)c1c(N)c2ccccc2[nH]c1=O,?
COC(=O)C1=C(NC(=O)c2cccc(C)c2)CCS1,?
COC(=O)c1sccc1NC(=O)c1cc(C)on1,5.9%
COc1ccc(OCCOC(=O)c2cccs2)cc1,0.7%
Fc1ccc(CN2CCCCCCC2)c(F)c1,1.4%
O=c1[nH]c2ccc(Cl)cc2c(-c2ccccc2)c1CN1CCOCC1,25.1µM*
Cc1cc(C)n(-c2ccc(OCC(=O)O)nn2)n1,-17.9%
CCS(=O)(=O)c1ccc(O)c(NC(=O)Nc2ccccc2)c1,13.8%
COc1ccc(N(CC(=O)Nc2ccc3c(c2)OCO3)S(C)(=O)=O)c(OC)c1,-4.1%
CCC(C)(NC(=O)c1ccccn1)C(=O)NC1CCCCC1 (stereo not drawn),-1.4%
O=C(O)C1C2C=CC(O2)C1C(=O)Nc1ccc(S(=O)(=O)N2CCc3ccccc32)cc1 (stereo not drawn),-24.5%
CC(C)OC(=O)c1cn(-c2ccccc2)nc1-c1ccco1,31.6µM*
COC(=O)Cn1c2c(c3cc(C)ccc31)CCCC2,31.6µM*
CCOc1c(C(N)=O)c(-c2ccccc2)c2c(=O)[nH]c3ccccc3n12,0.794µM*
O=C(Cn1cnc2c(nnn2Cc2ccc(Cl)cc2)c1=O)OCc1ccccc1,6.8%
COC(=O)NC1CSCC1OC(=O)CN1C(=O)c2ccccc2C1=O (stereo not drawn),6.1%
c1ccc(SCCSc2ccccc2)cc1,3.4%
O=C(O)c1ccc(CSc2ncn[nH]2)cc1,4.1%
Cc1ccccc1-c1nc(Cc2ccccc2)no1,-1.7%
COc1cccc2c1[C@@H]1CN(CCCCn3c(=O)[nH]c4c(sc5ncc(-c6ccccc6)nc54)c3=O)C[C@H]1CO2,5.3%
COc1ccc(C2CC(=O)c3cnc(N)nc3C2)c(OC)c1 (stereo not drawn),4.0%
CCOC(=O)N1CCN(S(=O)(=O)c2ccc(F)c(C(=O)Nc3cc(C)cc(C)c3)c2)CC1,-10.5%
O=C(COC(=O)c1n[nH]c2ccccc12)NC(=O)NC1CCCCC1,?
O=C1CC(N2CCC(c3nc4ccccc4o3)CC2)C(=O)N1c1ccc(Cl)c(C(F)(F)F)c1 (stereo not drawn),4.1%

# Five of these compounds in another layout.
SMILES	HSD17B inhib
c1ccc(SCCSc2ccccc2)cc1	3.4%
O=C(O)c1ccc(CSc2ncn[nH]2)cc1	4.1%
Cc1ccccc1-c1nc(Cc2ccccc2)no1	-1.7%
COc1cccc2c1[C@@H]1CN(CCCCn3c(=O)[nH]c4c(sc5ncc(-c6ccccc6)nc54)c3=O)C[C@H]1CO2	5.3%
COc1ccc(C2CC(=O)c3cnc(N)nc3C2)c(OC)c1 (stereo not drawn)	4.0%

# Next entries
SMILES,HSD17B inhib
CC(=O)Nc1nonc1-c1nc2ccccc2n1Cc1ccccn1,?
O=C(CSc1nccn1-c1ccc(Cl)cc1)Nc1ccc2c(c1)OCO2,?
COC(=O)CSc1nnc(-c2cccnc2)n1-c1cc(OC)cc(OC)c1,6.3%
COc1ccc(-n2c(=O)c(-c3ccc(F)cc3)nc3cncnc32)cc1,8.0%
Cc1cc2c(c(=O)n1C1CC1)C(c1cccc(Cl)c1)C(C#N)=C(N)O2 (stereo not drawn),-5.1%
CNC(=O)CN(C#N)c1nc(N(C)C)nc(N(C)C)n1,4.7%
CC(=O)c1oc2ccccc2c1N,0.9%
CCOCCCNC(=O)c1cc2c(-c3ccc(Cl)cc3)nn(C)c2s1,31.6µM*
O=C(NCc1cccnc1)c1ccc2c(=O)n(CCCN3CCCC3=O)c(=S)[nH]c2c1,1.4%
O=C(Cn1ncn2cccc2c1=O)N1CCCCC1,14.5%
O=C1C2C3C=CC(C3)C2C(=O)N1c1ccccc1 (stereo not drawn),8.3%
CC(CO)(CO)Nc1ncnc2ccccc12,8.5%[11.4 µM]
O=C(CCc1nc2ccccc2c(=O)[nH]1)NC1CCN(Cc2ccccc2)CC1,11.3%
CCOc1ccc(C2CC(c3ccc(CC)cc3)Nc3nc(N)nn32)cc1 (stereo not drawn),1.6%
O=C(c1cc(C(F)(F)F)cc(C(F)(F)F)c1)N1CCC2(CCCN(c3ncccn3)C2)CC1,-18.9%
CCOC(=O)c1c(NC(=O)c2cc(C3CC3)on2)sc(C(C)=O)c1C,-3.1%
CC(=O)N1CCc2[nH]c3ccccc3c2C1,-9.0%
O=C(c1cnc2ccccn2c1=O)N1CCCc2ccccc21,7.1%
NC1=C2NC=N[C@@H]2N(C/C=C\c2ccccc2)C=N1,2.5%[11.4 µM]
O=C(NCc1ccccc1)C(c1cccnc1)N(Cc1ccco1)C(=O)c1ccccn1 (stereo not drawn),2.7%
CC(OC(=O)c1cccc(NS(C)(=O)=O)c1)C(=O)Nc1ccc(N2CCOCC2)cc1 (stereo not drawn),4.6%
CCOc1ccc(NC(=O)C/C(N)=N/O)cc1,14.3%
Cc1c(-c2ccccc2)nc(N)c(C#N)c1-c1ccco1,31.6µM*
Cc1ccc(OCC(=O)O)c(-n2nc3ccccc3n2)c1,-24.3%
Cc1ccc(-c2nnc3c4ccccc4c(C)nn23)cc1S(=O)(=O)N1CCN(CCO)CC1,?
CCCOn1c(OCC(C)C)nc2ccccc2c1=O,14.8%
CC1CCCCN1CCNC(=O)c1ccc2c(=O)n(CCc3ccccc3)c(=O)[nH]c2c1 (stereo not drawn),4.7%
O=C(CSc1ncnc2nc[nH]c12)N1CCN(c2ccccc2)CC1,-2.1%
CCOC(=O)C1CCCN(C(=O)CN(c2ccc(OC)cc2)S(=O)(=O)c2c(C)noc2C)C1 (stereo not drawn),1.7%
CCc1ccccc1N(CC(=O)N1CCN(c2ccccc2F)CC1)S(C)(=O)=O,4.4%
Cn1c(=O)cc(OCC(=O)NCCCN2CCN(c3ccccc3F)CC2)c2ccccc21,0.8%
O=C1[C@H]2[C@H]3[C@H](O)[C@H](O)C/C(=N/OCc4ccccc4)[C@@H]3CC[C@@H]2C(=O)N1c1cccc(Oc2ccccc2)c1,-3.3%[11.4 µM]
CC1(C)Cc2ccccc2-c2nc(NCCO)n(-c3ccccc3)c(=O)c21,25.1µM*
CCCCn1c(Cc2ccccc2)n[nH]c1=S,-17.5%
CCOc1ccc(C(=O)OCC(=O)Nc2nc(OC)cc(OC)n2)cc1OCC,9.0%
CCC1CCCCN1Cc1nc2c(c(=O)n(C)c(=O)n2C)n1CC(C)C (stereo not drawn),-9.8%
CCOC(=O)C1CCN(C(=O)CN(c2ccc3c(c2)OCO3)S(C)(=O)=O)CC1,-2.8%
COc1ccc(C(CNC(=O)c2ccc(OCC3CCCO3)cc2)N2CCOCC2)cc1 (stereo not drawn),5.6%
O=C(NCc1ccc2c(c1)OCO2)c1ccc(-n2cnnn2)cc1,-15.9%
CCC(C)Sc1nc2c(c(=O)[nH]c(=O)n2C)n1C (stereo not drawn),-1.7%
COc1ccccc1NC(=O)C1=C(C)NC2=C(C(=O)CCC2)C1c1ccc2c(c1)OCO2 (stereo not drawn),?
O=C(O)CCC(=O)c1c[nH]c2ccccc12,9.9%
CCOC(=O)c1cc2occc2n1CC(=O)N1CCCc2ccccc21,-3.9%
CCOC(=O)CCc1cccc2c1CCC2=O,0.2%
CCN(CC)S(=O)(=O)c1ccc2oc(C(=O)O)c(C)c2c1,2.2%
COc1ccc(-c2nc(CS(=O)CC(=O)NCc3cccnc3)c(C)o2)cc1OC (stereo not drawn),25.1µM*
Cn1c(=O)cc(OCC(=O)NCCCN2CCN(Cc3ccccc3)CC2)c2ccccc21,-1.1%
Cc1cccc(N2CCN(C(=O)CSCc3c(C)noc3C)CC2)c1C,-2.1%
COc1ccc(C2CC(=O)C3=C(C2)Nc2ncnn2C3c2ccccc2)cc1 (stereo not drawn),31.6µM*
CCn1c(CNC(=O)c2ccc(OC)c(OC)c2)nnc1SCC(=O)Nc1ccccc1,6.4%
# The listing continues.
SMILES,HSD17B inhib
COCCn1c(=O)c(-c2cccc(C#N)c2)nc2cnc(Oc3cccc(Cl)c3)nc21,-2.6%
Cc1ccc(-c2ccc(=O)n(CCC(=O)NCc3ccccn3)n2)cc1,?
CC(=O)Nc1cnc(NC(=O)c2cccc(F)c2)cc1C,8.9%
O=c1cc(-c2ccccc2)oc2cc(O)cc(O)c12,0.4%
COc1cc(NC(=O)C2CCN(S(=O)(=O)c3cccnc3)CC2)cc(OC)c1OC,-2.2%
COC(=O)N1CCC2(CCCN(C(=O)Nc3cccc(F)c3)C2)CC1,5.2%
COc1cccc(C(=O)CSc2nnc(CNc3nc(-c4ccccc4)cs3)n2C)c1,-4.6%
CS(=O)(=O)Nc1cccc(-c2nc(N3CCOCC3)c3ccccc3n2)c1,2.9%
CCN(CC)c1ccc(NC(=O)c2c(OC)cccc2OC)c(C)c1,5.6%
COc1cccc(C2CC(c3c(F)cccc3Cl)n3nc(N)nc3N2)c1 (stereo not drawn),6.6%
COc1ccc(OCCC(=O)N2CCCCC2)cc1,2.8%
COc1ccc(-c2cc(C(F)(F)F)n3ncc(C(=O)O)c3n2)cc1OC,-2.3%
Cc1ccc2c(c1)CN1CN2Cc2cc(C)ccc21,8.7%
CCOc1ccc2nc(NCCNC(=O)C(C)C)c(C)cc2c1,25.1µM*
CN1CCC(OC(c2ccccc2)c2ccccc2)CC1,8.5%
CCOC(=O)c1[nH]c2ccc(OCC)cc2c1NC(=O)CN1CCN(c2ccccn2)CC1,25.1µM*
CCCc1cc(=O)[nH]c(/N=C(\N)Nc2ccccc2)n1,4.2%
O=C(CSc1nnc(CNC(=O)c2ccco2)o1)c1ccc(Cl)cc1,?
CCc1noc(C)c1C(=O)Nc1ncc(C)s1,-18.4%
COc1ccc(CNC(=O)CCc2c(C)nc3ncnn3c2C)cc1,4.4%

# 6 entries from above, bar-delimited:
mol | HSD17B inhib
CCc1ccccc1N(CC(=O)N1CCN(c2ccccc2F)CC1)S(C)(=O)=O | 4.4%
Cn1c(=O)cc(OCC(=O)NCCCN2CCN(c3ccccc3F)CC2)c2ccccc21 | 0.8%
O=C1[C@H]2[C@H]3[C@H](O)[C@H](O)C/C(=N/OCc4ccccc4)[C@@H]3CC[C@@H]2C(=O)N1c1cccc(Oc2ccccc2)c1 | -3.3%[11.4 µM]
CC1(C)Cc2ccccc2-c2nc(NCCO)n(-c3ccccc3)c(=O)c21 | 25.1µM*
CCCCn1c(Cc2ccccc2)n[nH]c1=S | -17.5%
CCOc1ccc(C(=O)OCC(=O)Nc2nc(OC)cc(OC)n2)cc1OCC | 9.0%

# Remaining list, next part.
SMILES,HSD17B inhib
CN1CCN(C(=O)c2cnn(-c3ccccc3)c2NC(=O)c2ccccc2F)CC1,4.7%
COc1ccccc1N1CCN(S(=O)(=O)c2cnc[nH]2)CC1,3.2%
COC(=O)c1c(NC(=O)CC2NCCNC2=O)sc2c1CCCC2 (stereo not drawn),-17.8%
Cc1onc(-c2c(F)cccc2Cl)c1C(=O)OCC(=O)NCc1ccco1,-9.2%
Cc1c(C)c2c(C)[nH]nc2oc1=O,-25.0%
Cn1c(=O)c(C(=O)COC(=O)c2cc(C3CC3)nc3ccccc23)c(N)n(Cc2ccccc2)c1=O,-3.8%
CCOC(=O)c1[nH]c2c(c1C)C(=O)CC(c1ccc(N(C)C)cc1)C2 (stereo not drawn),1.8%
Cn1cc(C(=O)NCCN2CCN(c3ccccc3F)CC2)c2c3ccccc3n(C)c2c1=O,?
CCc1c(C)nc2ncnn2c1N1CCCC(C(=O)NCCc2ccc(OC)cc2)C1 (stereo not drawn),5.0%
Cc1n[nH]c(C)c1S(=O)(=O)N1CCCC(C(=O)NCc2cccs2)C1 (stereo not drawn),-2.0%
COc1cccc(C(=O)Nc2ccc(NC(=O)c3ccco3)nc2)c1,5.0%
CCN(CCCNC(=O)C1CCN(S(=O)(=O)CC)CC1)c1ccccc1,-7.0%
COc1ccccc1CNc1ncnc2ccc(-c3ccc4c(c3)OCO4)cc12,31.6µM*
CC1CCN(CCCNC(=O)c2cc3c(=O)n(C)c4ccccc4c3n2C)CC1,31.6µM*
O=C(CSc1nnc(Cc2ccccc2)o1)N1CCc2ccccc21,16.8%
O=C(CSc1nnc(-c2ccccn2)n1Cc1ccco1)c1ccc(Cl)cc1,0.7%
CCOC(=O)c1ccc(NC(=O)CSCc2ccco2)cc1,-12.6%
O=C(O)CCC(=O)N1CCN(c2ccc(C(=O)c3ccc(F)cc3)cc2)CC1,-11.2%
COc1cc(O)c(C(=O)/C=C/c2ccc(O)c(OC)c2)c(OC)c1,19.1%
COc1ccc(OC)c(S(=O)(=O)NCC2CCCO2)c1 (stereo not drawn),6.8%
CCN(CC)S(=O)(=O)c1cccc(-c2nnc(SCC(=O)c3ccc(Cl)s3)n2C)c1,-22.4%
CCOC(=O)c1c(N=CN(C)C)c(C#N)n2c1CCC2,1.3%
CCP(=O)(CC)c1cccc(N)c1,-7.1%
CCOc1cccc(C(=O)NC2CCCCC2)c1,4.2%
CCCn1cc2c(c1-c1cccc(C)c1)c(=O)n(C)c(=O)n2C,-25.7%
CN(c1ccccc1C(=O)Nc1ccc2c(c1)OCCO2)S(C)(=O)=O,17.1%
